Source: PubChem BioAssay (several laboratories)
Autofluor counter = counter-screen for toxin protease inhibitors: compound fluorescence. compound autofluorescence counterscreen, microsphere flow cytometry; stronger effect = higher value. fluorescence intensity (no concentration beside the values). 3.1% of 360,000 active;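 active = at least 3 SD above the mean of all compounds, about 16000 in these data; inconclusive = too few beads counted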;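 note: 100 nL of 1 mM stock went into each well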
ugtP null kill = kills S. aureus RN4220 lacking UgtP. S. aureus RN4220 ugtP deletion, OD600 growth, 16 h; some inactives read as strong as hits. growth inhibition, % (no concentration beside the values). 0.54% of 330,000 active;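 active = z-score under -3 and OD600 up to 0.15 on both plates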;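 note: plate controls were untreated wells for no effect and antibiotic for full effect; wells of about 80 µL received 100 nL stock; the first replicate is given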
Sa RN4220 lethal = S. aureus RN4220 growth inhibition; OD600, 16 h; inhibition, % (test concentration not listed); 0.33% of 330,000 active;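 active = z-score of -3 or lower and OD600 up to 0.18 on both plates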;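 note: plate controls were untreated cells for no effect and reference antibiotic for full effect; stock transfer was 100 nL into about 80 µL; one replicate is shown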
PrP 5UTR inh = inhibition of PrP 5' UTR reporter expression | 0.35% of 340,000 active | inhibition, % (concentration not given with the values) | AID 488862 | cell-based PrP 5' UTR mRNA reporter, plate reader;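 active = every replicate at 50% or more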;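 note: 0 = median of the neutral control wells; tested in H4 reporter cells; numbers are from one replicate; inactives centre near -14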
BJeLR viability = BJeLR cell viability loss | BJeLR (HRASV12) viability, CellTiter-Glo ATP luminescence, 48 h; reference of the scale not given here | inhibition, % (concentration not given with the values) | 0.17% of 300,000 active | AID 1554;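 active = replicate mean above 50%; inconclusive = above 50% but judged a plate artefact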;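 note: 50 nL library stock added to about 25 µL; numbers are from one replicate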
Mtb hypoxia inh = Mtb hypoxia fluorescent reporter inhibition | M. tuberculosis hypoxia-regulated fluorescent reporter, fluorescence | fluorescence inhibition, % (test concentration not listed) | 0.1% of 300,000 active | AID 1159583;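 active = 35 to 45% if threefold the growth effect, above 45% if 1.5-fold the growth effect; inactive = the rest, general growth blockers included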;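 note: wells of about 50 µL received 100 nL stock; 0% = vehicle wells and 100% = reference inhibitor wells; whole bacteria with a GFP reporter of the hypoxia response; strong numbers were not always called active; many hits fall short of the cut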
Mtb hypoxia inh growth = also measured in Mtb hypoxia inh; calls as there; growth inhibition, %; measured here: M. tuberculosis growth (absorbance);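 0% = vehicle and 100% = reference antibiotic; read after six days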
* hit, by the source's call; ? = inconclusive; · = not tested or not shown. Random draw from the library. Share with any hit: about 4.1%.

Start of the data: the first 6 compounds (preview)
item | SMILES | Autofluor counter | ugtP null kill | Sa RN4220 lethal | PrP 5UTR inh
1 | CCOC(=O)C1CCCN(c2oc(-c3ccc(F)cc3)nc2C#N)C1 (stereo unspecified) | 4283 | 10 | 9.4 | -17
2 | O=C(Nc1ccc2c(c1)OCCO2)c1ccccn1 | 4537 | 8 | 3.5 | 24
3 | O=C(CSc1n[nH]c(=O)n1-c1cccnc1)Nc1ccccc1Cl | 4557 | 17 | 7.5 | -17
4 | CCN1C(=O)NC(c2cc(Br)ccc2OC)C(C(=O)OC)=C1C (stereo unspecified) | 4682 | 2 | 8.9 | -14
5 | COc1cc(C=NNC(=S)NCCN2CCOCC2)cc(OC)c1O | · | 1 | 5.5 | ·
6 | C=CCn1c(C)cc(C2=NNC(=Nc3ccc(C)cc3)SC2)c1C | 3517 | 4 | 6.8 | -22

item | BJeLR viability | Mtb hypoxia inh | Mtb hypoxia inh growth
1 | -5 | -3 | 5
2 | 21 | 0 | 6
3 | -15 | -5 | 2
4 | -11 | · | ·
5 | · | -3 | -1
6 | 1 | 0 | -2

The listing, from the start:
item | SMILES | Autofluor counter | ugtP null kill | Sa RN4220 lethal | PrP 5UTR inh
1 | CCOC(=O)C1CCCN(c2oc(-c3ccc(F)cc3)nc2C#N)C1 (stereo unspecified) | 4283 | 10 | 9.4 | -17
2 | O=C(Nc1ccc2c(c1)OCCO2)c1ccccn1 | 4537 | 8 | 3.5 | 24
3 | O=C(CSc1n[nH]c(=O)n1-c1cccnc1)Nc1ccccc1Cl | 4557 | 17 | 7.5 | -17
4 | CCN1C(=O)NC(c2cc(Br)ccc2OC)C(C(=O)OC)=C1C (stereo unspecified) | 4682 | 2 | 8.9 | -14
5 | COc1cc(C=NNC(=S)NCCN2CCOCC2)cc(OC)c1O | · | 1 | 5.5 | ·
6 | C=CCn1c(C)cc(C2=NNC(=Nc3ccc(C)cc3)SC2)c1C | 3517 | 4 | 6.8 | -22
7 | O=C(NCCCN1CCOCC1)c1cccnc1SCc1ccccc1Cl | 2445 | 2 | 1.6 | -3
8 | Cc1nccn1-c1c2c(c(C#N)c3nc4ccccc4n13)CCCC2 | 4251 | 5 | 3.5 | -12
9 | CCCCCCCC(=O)NN1CCOCC1 | 2812 | -8 | 0.6 | -18
10 | Cc1nc(C(=O)Nc2cc(F)cc(Cl)c2)sc1C1(C)CC(c2ccccc2)=NO1 (stereo unspecified) | 3393 | -31 | 11 | -19
11 | Cc1[nH]n(C(N)=S)c(=O)c1N=Nc1cccc([N+](=O)[O-])c1C | 4381 | 4 | 2.7 | -75
12 | COc1ccc(C2c3cc(OC)c(OC)cc3CCN2C2CC(=O)N(c3ccccc3)C2=O)cc1OC (stereo unspecified) | 11185 | -5 | -4.4 | -10

item | BJeLR viability | Mtb hypoxia inh | Mtb hypoxia inh growth
1 | -5 | -3 | 5
2 | 21 | 0 | 6
3 | -15 | -5 | 2
4 | -11 | · | ·
5 | · | -3 | -1
6 | 1 | 0 | -2
7 | -3 | 0 | 5
8 | · | 14 | 9
9 | -3 | · | ·
10 | 6 | -8 | 9
11 | 19 | 11 | 10
12 | -4 | 3 | 13

Further results:
item | SMILES | Autofluor counter | ugtP null kill | Sa RN4220 lethal | PrP 5UTR inh
13 | O=C(Nc1ccc(F)cc1)Nc1ccc([N+](=O)[O-])cn1 | 3404 | -12 | 1.3 | -15
14 | CC(Sc1ccc(Cl)cc1)C(=O)N(C)CC(=O)Nc1ccc(N2CCOCC2)cc1 (stereo unspecified) | ? | -1 | 1.6 | -6
15 | CCOc1cc(S(=O)(=O)N2CCC(Cc3ccccc3)CC2)c(OCC)cc1-n1cnnn1 | 7020 | -2 | 0.5 | -22
16 | OCCC1CN(Cc2cccc3nccnc23)CCN1Cc1ccc(F)cc1 (stereo unspecified) | 6142 | 5 | 3.3 | -11
17 | CC(C)CCNC(=O)C1CCN(S(=O)(=O)c2ccc3c(c2)CCC(=O)N3)CC1 | 5173 | 2 | 1.7 | 3
18 | O=C(/C=C/c1ccc2c(c1)OCO2)Nc1nc2ccc(F)cc2s1 | 4567 | -3 | -3.7 | -58
19 | Cc1cc(C)c(C=NNC(=O)c2nnn(-c3nonc3N)c2CN2CCC(C)CC2)c(C)c1 | · | 6 | 7.6 | ·
20 | COc1cc(Br)cc(CN2CCN(c3ncccn3)CC2)c1O | 4172 | 6 | 7.9 | -17
21 | COc1cccc(C2/C(=C(/O)c3ccccc3)C(=O)C(=O)N2CCCC(=O)O)c1 (stereo unspecified) | 2476 | 0 | 3.8 | 3
22 | O=[N+]([O-])c1ccc(CN2CCN(c3ccc([N+](=O)[O-])cc3)CC2)cc1 | 3713 | 2 | 1.4 | -13
23 | O=C1C(=Cc2ccccc2)N2CCC1CC2 | 3777 | 1 | 4.9 | 21
24 | Cc1ccc(Nc2c(-c3ccccn3)nc3ccc(C)cn23)cc1 | 4221 | 95* | 100* | 18

item | BJeLR viability | Mtb hypoxia inh | Mtb hypoxia inh growth
13 | 2 | 5 | 1
14 | -1 | 9 | -2
15 | -5 | 10 | 0
16 | 5 | 7 | 13
17 | -2 | · | ·
18 | -6 | -9 | -2
19 | · | 9 | 13
20 | 1 | 18 | 7
21 | · | -6 | 1
22 | 1 | 3 | 1
23 | · | 10 | 6
24 | 33 | · | ·

(list continues)
item | SMILES | Autofluor counter | ugtP null kill | Sa RN4220 lethal | PrP 5UTR inh
25 | COc1ccc(CCNC(=O)CN2C(=O)COc3ccc(S(=O)(=O)N4CCCC4)cc32)c(OC)c1 | 4096 | 3 | 1.0 | -49
26 | CC(O)c1nc2ccccc2n1Cc1ccc([N+](=O)[O-])cc1 (stereo unspecified) | 2432 | 1 | 1.6 | -9
27 | CCC(=O)c1ccc(OCC(=O)NCCCN2CCOCC2)cc1 | 4785 | 4 | 3.2 | -24
28 | CS(=O)(=O)Nc1ccc(C(=O)NCc2cccnc2)cc1 | 4244 | 6 | 2.1 | -33
29 | Cc1ccc(S(=O)(=O)N2CCOC2CNC(=O)C(=O)NCCc2c[nH]c3ccccc23)cc1 (stereo unspecified) | 2789 | -2 | 6.0 | -22
30 | COc1ccc(CC(=O)N/N=C(\C)c2cccc(NC(=O)C3CC3)c2)cc1 | 4728 | · | · | -12
31 | Fc1ccccc1NC(=S)N1CCC(c2ccccc2)C1 (stereo unspecified) | 4485 | -4 | 0.9 | -54
32 | COc1ccc2c(CC#N)c[nH]c2c1 | 2839 | -1 | 2.7 | 26
33 | O=C(/N=C1/c2ccccc2CN1c1ccccc1)Nc1ccccc1 | 2375 | · | · | -16
34 | O=C(CN1CCN(c2nc(-c3ccccc3)cs2)CC1)NNC(=O)c1ccco1 | 5272 | -5 | 26 | 1
35 | CCCOc1ccc(N2C(=O)CC(SCc3nc4ccccc4[nH]3)C2=O)cc1 (stereo unspecified) | 2194 | 7 | 2.8 | -21
36 | O=C(NCC1CCCO1)/C(=C/c1ccccc1)NC(=O)c1ccccc1 (stereo unspecified) | 2520 | 2 | -1.4 | -21

item | BJeLR viability | Mtb hypoxia inh | Mtb hypoxia inh growth
25 | 0 | -6 | 1
26 | 2 | 5 | 10
27 | · | -11 | 0
28 | 5 | 10 | 9
29 | 10 | 3 | -2
30 | -15 | · | ·
31 | -5 | -12 | 8
32 | 5 | 8 | 6
33 | 8 | · | ·
34 | -3 | 3 | 10
35 | -3 | 0 | -4
36 | -6 | 6 | -15

(list continues)
item | SMILES | Autofluor counter | ugtP null kill | Sa RN4220 lethal | PrP 5UTR inh
37 | Cc1occc1-c1nnc(SCc2cc(=O)n3cc(Br)ccc3n2)n1C | · | -1 | 2.9 | ·
38 | O=C(CN1C(=O)NC2(CCc3ccccc32)C1=O)Nc1ccc(Br)cc1F (stereo unspecified) | 8585 | 3 | 0.1 | -15
39 | COc1cc(CN(C2CCCCC2C)S(=O)(=O)c2ccc(S(=O)(=O)NC3CC3)cc2)cc(OC)c1OC (stereo unspecified) | 1948 | -10 | 11 | -4
40 | COc1cc2c(cc1NC(=O)Nc1ccccc1)oc1ccccc12 | 3446 | 84* | 31 | -14
41 | O=C(c1ccc(Cl)cc1)C(CN1CCCCC1)c1ccccc1 (stereo unspecified) | 3242 | 42 | 22 | -24
42 | CC(=NNC(=O)Cc1c[nH]c2ccccc12)c1ccc2ccccc2c1 | · | -4 | -8.8 | ·
43 | NC1=NC(=Nc2cccc(S(N)(=O)=O)c2)c2ccccc21 | 4000 | 8 | 3.1 | -14
44 | CC(CNC(=O)CN1C(=O)NC2(CCCCC2)C1=O)c1ccccc1 (stereo unspecified) | 3795 | 2 | 2.6 | -12
45 | CCOc1ccc(S(=O)(=O)N2CCCC2)cc1 | 10977 | 3 | 6.4 | -13
46 | Cc1[nH]nc(-c2ccc(O)c(C)c2O)c1-c1cnn(-c2ccccc2)c1 | 16094 | -17 | 0.4 | -11
47 | O=C(O)C1C2C=CC(O2)C1C(=O)Nc1ccccn1 (stereo unspecified) | 3472 | -2 | -2.3 | -14
48 | Cc1cc(O)c(C=NOCc2ccc(Cl)cc2Cl)c(=O)o1 | · | -1 | 14 | ·

item | BJeLR viability | Mtb hypoxia inh | Mtb hypoxia inh growth
37 | · | -3 | 4
38 | · | 1 | 2
39 | -7 | -11 | 3
40 | 2 | 9 | 2
41 | 7 | 12 | 13
42 | · | 16 | 5
43 | 6 | -1 | -7
44 | · | -6 | 5
45 | -6 | 18 | 7
46 | -12 | 1 | -1
47 | · | 14 | 10
48 | · | -2 | 10

(continued)
item | SMILES | Autofluor counter | ugtP null kill | Sa RN4220 lethal | PrP 5UTR inh
49 | Cc1onc(-c2ccccc2)c1C(=O)OCC(=O)NC(C)c1ccc(Cl)cc1 (stereo unspecified) | 9044 | -7 | -6.5 | -23
50 | COc1ccc(NC(=O)CN(C)C(=O)C(C)Oc2ccc(Br)cc2)cc1 (stereo unspecified) | 6211 | 1 | -0.8 | -7
51 | Cc1ccc(C(=O)N2CC(C)SC2=Nc2cccc(S(=O)(=O)N(C)C)c2)cc1 (stereo unspecified) | 2376 | 15 | 3.5 | -36
52 | CCC(CO)Oc1cc(NC(=O)Cc2ccccc2F)c2ncn(C(C)C)c2c1 (stereo unspecified) | 3501 | 3 | 2.1 | -2
53 | COc1ccc(OCCC(=O)NC2CCCCC2)cc1 | 4593 | 0 | 1.6 | -20
54 | CCN1C(=O)c2ccc(C(=O)NCc3ccco3)cc2C1=O | 5499 | · | · | -3
55 | O=C(Nn1cnnc1)C(c1ccccc1)c1ccccc1 | 2480 | 3 | 0.6 | -23
56 | Cc1ccc(-c2nc(Nc3ccccc3)n[nH]2)cc1 | 2529 | -13 | -1.5 | -110
57 | COc1ccc(-n2c(-c3ccccc3)nc(=S)c3c2CCCC3)cc1 | 4202 | -2 | 4.2 | -16
58 | C=CCOc1ccc(CNc2nccs2)cc1OC | 3189 | 3 | 7.9 | -16
59 | CCS(=O)c1ccccc1C(=O)OCC(=O)Nc1ccc2ccccc2c1 (stereo unspecified) | 3927 | -2 | -2.1 | -8
60 | O=C(N[C@@H](Cc1ccccc1)C(=O)NCc1ccc(F)cc1)C1CCNCC1 | 5986 | 11 | 6.7 | -16

item | BJeLR viability | Mtb hypoxia inh | Mtb hypoxia inh growth
49 | · | 10 | 9
50 | 0 | 0 | -1
51 | -4 | 3 | 0
52 | · | 0 | 0
53 | -8 | 11 | 3
54 | -1 | · | ·
55 | -12 | · | ·
56 | · | 6 | 3
57 | 9 | · | ·
58 | 3 | 4 | 6
59 | · | 1 | 6
60 | 0 | -8 | -3

The results go on:
item | SMILES | Autofluor counter | ugtP null kill | Sa RN4220 lethal | PrP 5UTR inh
61 | CCCCNC(=O)CCC(=O)NNc1nc2ccccc2c2nc(C)nn12 | 1865 | 3 | 0.5 | 2
62 | CC(NC(=O)Cc1ccccc1F)c1ccc(F)cc1 (stereo unspecified) | 4399 | 1 | 2.7 | -14
63 | COCCn1cnc2c(c1=O)c1nc3ccccc3nc1n2N=Cc1ccco1 | · | -11 | 6.2 | ·
64 | COc1cccc(CNCC(=O)Nc2ccc(N3CCOCC3)cc2)c1 | 2570 | 3 | 3.6 | -18
65 | CCOC(=O)C1(C#N)Cc2ccccc2C1 | 3824 | 3 | 3.1 | -10
66 | CCCC(C)c1nnc(NC(=O)COc2ccc3c(c2)OCO3)s1 (stereo unspecified) | 6058 | -2 | -0.9 | -13
67 | Cc1ccc(NC(=O)CN(C)C(=O)CSc2ccccc2F)cc1 | 3773 | 1 | 3.4 | 12

item | BJeLR viability | Mtb hypoxia inh | Mtb hypoxia inh growth
61 | -10 | 3 | 6
62 | 6 | 3 | 1
63 | · | -5 | 5
64 | -2 | -4 | 4
65 | · | 11 | 7
66 | -6 | 6 | -5
67 | · | -7 | 2
